Bioassay records as filed in PubChem.
eIF4H FP inh: inhibitors of RNA binding by human eIF4H | actives 0.94% (n = 290,000) | eIF4H fluorescence polarization binding assay | inhibition, % at 35 µM | Q15056 | AID 2012;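 active = 50% or more with normal probe brightness, or confirmed in later tests; inconclusive = above 50% with abnormal brightness, or retests that disagree; inactive = below 50% or failed in later tests; about a fifth of its hits are not listed in these tables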;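 note: calls also rest on retests at 20 µM and on dose response follow-up; 0% = protein and probe with vehicle and 100% = probe without protein; strong numbers were not always called active; many hits fall short of the cut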
MT1-MMP act inh: blocks activation of human MT1-MMP | HT1080 RFP-PRO-GFP cells, GFP/RFP ratio fluorescence, overnight; percent of plate control window, DMSO zero | GFP/RFP ratio change, % at 20 µM | actives 0.061% (n = 360,000) | AID 651647;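 active = GFP/RFP ratio change of at least 30% with cell ATP level not reduced by more than half and red fluorescence within 50% of control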; note: strong numbers were not always called active
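Assay system: HT1080 RFP-PRO-GFP cells. Benchmarks: DMSO vehicle wells and RFP-L50D-GFP reporter cell wells. Times: overnight cell settling, then overnight compound exposure, 37 °C, 5% CO2. Compound: 20 µM single dose, 1% DMSO. Read-out basis: GFP/RFP fluorescence ratio.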
Rce1 inhib: blocks yeast Ras-converting enzyme | Q03530 | yeast membranes, quenched prenylated peptide cleavage fluorescence | calls only | actives 0.27% (n = 290,000) | AID 2563;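 active = fall in fluorescence gain of 50% or more versus controls, with final raw signal at or below 3038400; inconclusive = same 50% fall but final raw signal above 3038400; inactive = fall in fluorescence gain under 50%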;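 note: plate controls were neutral control wells for no effect and wells lacking membranes for full effect; tested at 10 µM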
Target sequence (Q03530 whole entry, looked up): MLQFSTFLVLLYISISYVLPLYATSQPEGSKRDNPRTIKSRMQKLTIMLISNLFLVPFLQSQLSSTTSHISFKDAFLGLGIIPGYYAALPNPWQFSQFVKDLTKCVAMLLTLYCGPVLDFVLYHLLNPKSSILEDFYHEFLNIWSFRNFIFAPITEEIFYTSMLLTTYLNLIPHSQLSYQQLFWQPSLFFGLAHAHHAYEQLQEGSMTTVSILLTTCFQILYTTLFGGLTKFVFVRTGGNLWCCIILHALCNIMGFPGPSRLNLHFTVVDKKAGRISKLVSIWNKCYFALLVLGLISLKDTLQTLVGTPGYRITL
UUG fidelity: modulators of start codon recognition fidelity in yeast; AID 602363; S. cerevisiae UUG-firefly luciferase reporter, luminescence/redox ratio; activity score, % at 18.7 µM; actives 0.13% (n = 350,000);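 active = replicate mean at a twofold rise or more, about +100% in these data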;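 note: firefly luciferase made from a UUG start codon reports start codon fidelity; reporter light over untreated wells divided by growth signal over untreated wells; some hits fall short of that in this replicate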
CSC inhib: blocks cancer stem cells; cancer stem cell-like cells viability, luminescence; inhibition, % at 7.5 µM; actives 1.1% (n = 300,000); AID 2717;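 active = mean at 75% or more and at least half the replicates too; inconclusive = mean and replicates disagree; tested in HMLE shEcad cells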;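 note: 0% = median of negative and 100% = median of positive control wells; the first replicate is given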
PABP FP inh: PABP-poly(A) binding inhibition. P11940. PABP-poly(A) RNA binding, fluorescence polarization. inhibition, % at 35 µM. actives 1% (n = 290,000);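 active = 50% or more with normal probe brightness, or confirmed in later tests; inconclusive = above 50% with abnormal brightness, or retests that disagree; inactive = below 50% or failed in later tests; about a fifth of its hits are not listed in these tables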;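 note: calls also rest on retests at 20 µM and on dose response follow-up; controls were probe without protein and protein plus probe with vehicle; some compounds called inactive have numbers as strong as hits; many hits fall short of the cut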
HIV Env fusion: inhibitors of HIV Env-mediated cell fusion. actives 1.1% (n = 360,000). HeLa-JRFL Env/CEM21 cell fusion, luciferase. inhibition, % at 12.3 µM. AID 651610;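 active = mean replicate inhibition score of at least 50 and every replicate individually at or above 50; inconclusive = only one of the two criteria met; inactive = mean below 50 and not all replicates reaching 50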;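 note: 0% = plate neutral controls and 100% = maraviroc near 300 nM; one replicate is shown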
eIF4H FP inh retest: second read-out of eIF4H FP inh, no call of its own (marks repeat the call); inhibition, %; compound at 20 µM; confirmation average;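 mean of two retest wells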
PABP FP inh retest: further read-out of PABP FP inh, marked with its call; inhibition, %; compound at 20 µM; confirmation repeats;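 mean of two retest wells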
MT1-MMP act inh RFP: recorded beside MT1-MMP act inh, whose call it bears; RFP signal change, %; measured here: RFP expression control read;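 0 = vehicle wells; hits needed this value within 50% of zero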
Active calls of the source: *; i = inactive; ? = inconclusive; nt = not tested or not shown; + = active, no number. A portion of the library; the hit share may differ from the screen's.

SMILES | eIF4H FP inh | MT1-MMP act inh | MT1-MMP act inh RFP | Rce1 inhib | UUG fidelity | CSC inhib | PABP FP inh | HIV Env fusion | others
CCCCN(CC)CCNC(=O)c1cc2c(-c3ccccc3F)nn(C)c2s1 | -6.5 | -0.9 | -0.6 | i | -7.8 | -4.6 | -3.4 | -17.0
CC(C)c1ccc(C2NC(=O)c3ccccc3O2)cc1 (configuration not stated) | -7.9 | 1.1 | 4.1 | i | -0.8 | 1.1 | -2.8 | -10.5
Cc1cnc(NC(=O)NCC2CCCC(CNC(=O)Nc3ncc(C)s3)C2)s1 (configuration not stated) | -3.6 | -1.8 | -7.7 | i | -9.1 | 11.2 | 13.4 | 15.2
CCOC(=O)C1CCN(C(=O)CCc2nc3ccccc3[nH]2)CC1 | -6.9 | 1.5 | 1.7 | i | -12.5 | 14.0 | 11.6 | nt
CCCc1nc2c(sc3nc4c(cc32)COC(C)(C)C4)c(=O)n1Cc1ccco1 | 5.6 | -23.2 | -20.5 | i | -4.9 | 50.9 | 8.0 | 0.0
CCOc1cc(CNc2ccc(N3CCOCC3)cc2)cc(Br)c1OCC | 2.0 | 6.1 | 0.4 | i | nt | nt | 8.3 | nt
CC(C)(C)c1ccc(-c2n[nH]c(=S)n2CCCN2CCOCC2)cc1 | 0.3 | -0.1 | 1.0 | i | nt | -13.8 | -2.4 | 3.9
COc1ccc2c(CC(=O)Nc3ccc(OC)c(NS(=O)(=O)c4ccc(F)cc4)c3)coc2c1 | -1.5 | 4.4 | 2.9 | i | -12.5 | 20.8 | -6.4 | -49.7
COc1ccc(CCNC(=O)COC(=O)C2=NNC(=O)CC2)cc1 | nt | -0.9 | 4.7 | nt | -14.2 | nt | nt | -48.4
O=C(CCc1ccccc1)NNC(=O)c1ccc(Cl)cc1 | -12.5 | 1.2 | 5.7 | i | 16.4 | -13.8 | -1.8 | -6.4
Cc1ccc(S(=O)(=O)Nc2cc(=O)[nH]c(SCC(=O)Nc3cccc(C(F)(F)F)c3)n2)cc1 | -11.2 | 1.3 | -0.2 | i | -18.9 | nt | -0.2 | 8.8
NC(=O)c1ccc(Cn2c(C(=O)c3cc(Cl)c(N)c(Cl)c3)c3ccccc3[n+]2[O-])cc1 | nt | 4.8 | 3.1 | nt | -12.3 | 46.9 | nt | 17.7
CN(C)c1ccc(/C=N/Nc2nncc3ccccc23)cc1 | 0.4 | 1.9 | -0.8 | i | -11.5 | -11.7 | 0.0 | -77.2
O=C(C[C@H]1C(=O)N(CCc2ccccc2)C[C@@H]1Cc1ccccc1)Nc1ccc(Br)cc1 | nt | -3.0 | -6.3 | nt | -10.6 | nt | nt | -15.1
CC(C(=O)OCC(=O)c1ccccc1)N1C(=O)C2C3CCC(C3)C2C1=O (configuration not stated) | -6.0 | -0.8 | 2.9 | i | nt | 3.1 | -12.6 | 14.8
Cc1ccc2nc(NCC(N)=O)nc(-c3ccccc3)c2c1 | -0.8 | nt | nt | i | nt | 0.0 | 9.8 | 1.0
O=C(CCCN1C(=O)/C(=C/c2ccco2)SC1=S)Nc1ccccc1C(=O)O | 100.2* | 10.0 | 20.7 | i | nt | 9.3 | 84.3* | -8.7
Cc1ccc(C(=O)NC(C)c2nc3ccccc3n2CC(=O)Nc2c(C)cc(C)cc2C)cc1 (configuration not stated) | -0.6 | nt | nt | i | nt | -2.5 | 7.6 | nt
CC(=O)c1sc(-c2ccc(Cl)cc2)cc1N | -7.3 | 0.5 | -0.7 | i | nt | 8.2 | -3.7 | -57.5
CCc1nnc(NC(=O)CSc2nnc(-c3c[nH]c4ccccc34)n2CCOC)s1 | -9.0 | -0.4 | 2.2 | i | -13.2 | -8.3 | -9.0 | -44.3
O=C(O)c1cccc2c1C(=O)c1ccc(N3CCN(Cc4ccc5c(c4)OCO5)CC3)cc1S2(=O)=O | nt | -1.0 | 3.8 | nt | -0.3 | nt | nt | 6.8
CC(C)(CO)NCC#Cc1ccccc1 | -1.1 | 0.0 | 1.3 | i | -7.0 | 9.3 | -1.3 | -8.4
CCOC(=O)C1CCN(CCC(=O)Nc2ccc(C)c(C)c2)CC1 | -6.8 | 0.9 | 0.3 | i | nt | 17.6 | 5.6 | 0.1
Cc1nc(C(F)(F)F)ccc1C(=O)Nc1ccccc1N1CCOCC1 | 3.8 | -0.7 | 3.0 | i | -14.9 | 3.4 | 8.1 | -10.5
CN(C(=O)c1cccc(NC(=O)C2CCCN(C(=O)OC(C)(C)C)C2)c1)C1CCC1 (configuration not stated) | nt | -0.7 | -9.2 | nt | 11.1 | nt | nt | 23.0

(next part)
SMILES | eIF4H FP inh | MT1-MMP act inh | MT1-MMP act inh RFP | Rce1 inhib | UUG fidelity | CSC inhib | PABP FP inh | HIV Env fusion | others
COCCn1c(=O)c2c(nc3n2CCCN3CCc2ccc(OC)c(OC)c2)n(C)c1=O | 4.4 | 4.0 | 1.5 | i | -1.0 | 4.4 | -1.4 | 23.1
CCOc1ccccc1NC(=O)CN(c1ccc(C)cc1)S(=O)(=O)c1c(C)n[nH]c1C | -4.9 | -5.2 | -3.0 | i | -8.6 | -8.9 | -8.0 | nt
CCOC(=O)C1(C)Oc2ccccc2C(c2ccc(OC)cc2)=C1C(=O)OC (configuration not stated) | nt | -1.3 | -1.0 | nt | -7.8 | nt | nt | 19.6
Cc1cc(Nc2ccc3c(c2)OCCO3)n2nc(C)nc2n1 | -8.2 | -2.3 | 0.0 | i | -16.2 | -3.2 | 11.1 | 16.9
O=C(Nc1ccccc1N1CCOCC1)C1CCN(S(=O)(=O)c2ccc(F)cc2)CC1 | -1.2 | 6.2 | 0.6 | + | 5.1 | -7.7 | -6.2 | -58.4
CC(C)c1ccc(-c2cc(C(=O)NN3CCN(C)CC3)c3ccccc3n2)cc1 | 0.6 | 1.9 | -2.4 | i | -13.1 | nt | 1.4 | -225.9
CCCCNC(=O)CCc1nc2cccnc2n1Cc1ccccc1 | 1.1 | 2.2 | 4.2 | i | -8.8 | -4.7 | 1.5 | 12.3
Cc1nc(N(CCO)C2CCCCC2)c2nnn(Cc3ccccc3)c2n1 | 2.5 | -3.7 | -4.1 | i | -9.1 | 67.7 | 11.4 | ?
CC(=O)Nc1ccc2c(c1)nc(CCN1CCN(c3ccccn3)CC1)n2C | 4.9 | 3.6 | 0.5 | i | -2.5 | 2.4 | -0.9 | 9.2
O=C(NCCCN1CCCC1=O)c1cc(S(=O)(=O)N2CCOCC2)c(Cl)cc1Cl | nt | 7.7 | -0.4 | nt | -5.5 | nt | nt | 18.9
COc1ccc2nc(NC(=O)Nc3ccccc3OC)sc2c1 | 4.9 | -3.9 | -11.1 | i | -17.5 | 47.7 | -3.3 | -493.1
CC(C)CN(C(=O)c1cccc([N+](=O)[O-])c1)c1c(N)n(CC(C)C)c(=O)[nH]c1=O | -3.0 | -2.1 | 1.2 | i | -18.1 | -2.8 | 2.8 | 3.2
CN1CCN(C(=S)C(=O)Nc2ccc(Br)cc2)CC1 | 1.3 | -4.7 | -1.0 | nt | nt | -4.8 | -4.5 | 18.3
COc1ccc(C(=O)Cn2cnc3ccccc3c2=O)cc1 | -4.7 | 1.9 | 0.6 | i | -13.6 | nt | -9.9 | -52.5
Cc1cc(C)c2oc(C(=O)N(Cc3ccc(F)cc3)C3CCS(=O)(=O)C3)cc(=O)c2c1 (configuration not stated) | nt | 0.3 | 2.5 | i | 0.2 | -9.4 | nt | -3.5
CCCCCCN1CCN(C2CN(Cc3ccc([N+](=O)[O-])cc3)S(=O)(=O)C2)CC1 (configuration not stated) | nt | 3.1 | -0.1 | nt | -12.0 | nt | nt | -15.0
CCCc1nn(C)c(C(=O)Nc2ccc(C(C)(C)C)cc2)c1Cl | -2.3 | 2.6 | -1.7 | i | nt | 33.7 | -1.2 | 8.0
Cc1c(C(N)=O)sc2ncn(CC(=O)OC(C)C)c(=O)c12 | -15.5 | 3.0 | 7.5 | i | -13.3 | -16.1 | -11.1 | nt
Cc1noc(C)c1-c1ccc(C(=O)Nc2cccc(C(F)(F)F)c2)c2occc12 | nt | 4.2 | -3.6 | nt | -6.9 | nt | nt | 5.7
O=C(NCc1ccco1)c1cc(-c2cccnc2)nc2ccccc12 | 1.5 | 5.3 | -2.7 | i | -5.0 | -8.3 | 4.0 | -1.6
OC(c1cc(Cl)cc(Cl)c1)c1ncc(-c2ccccc2C(F)(F)F)[nH]1 (configuration not stated) | nt | 5.2 | 0.0 | nt | -9.4 | nt | nt | 1.2
CCCCOC(=O)Nc1nc2ccc(OC)cc2s1 | -8.5 | 4.1 | 1.6 | i | -13.9 | -5.1 | 4.9 | -134.2
COc1ccc(N(CC(=O)NCc2ccc(C)cc2)S(=O)(=O)c2c(C)[nH]c(=O)[nH]c2=O)cc1 | 1.6 | 1.5 | 2.4 | i | -1.5 | nt | 1.9 | -1.9
COc1ccccc1/C=C/C=N/N1CCN(c2ccccn2)CC1 | 1.3 | -1.5 | -4.4 | i | -14.1 | 6.5 | 19.0 | nt
Cc1sc(N/N=C/C=C/c2ccccc2)nc1-c1ccccc1 | -2.0 | -4.7 | -4.6 | i | nt | 12.2 | 6.7 | -48.9

(list continues)
SMILES | eIF4H FP inh | MT1-MMP act inh | MT1-MMP act inh RFP | Rce1 inhib | UUG fidelity | CSC inhib | PABP FP inh | HIV Env fusion | others
COP(=O)(c1ccc(N(C)C)cc1)C(O)c1ccccc1 (configuration not stated) | -4.1 | -3.6 | 2.5 | i | -20.9 | -13.5 | -8.2 | -10.7
Cc1ccc(Oc2ccc(Oc3ccc(C)cc3)nn2)cc1 | -0.8 | 3.7 | 1.1 | i | -19.3 | -14.7 | 0.5 | -42.9
N#CCSc1nc(N)c(C#N)c(C2CCCCC2)c1C#N | -5.3 | 7.9 | -4.3 | i | -6.0 | -2.5 | 4.8 | nt
CC(C)NCCCCOc1cccc(Br)c1 | 21.7 | 3.3 | 6.7 | i | nt | 17.7 | 106.4 | -4.9 | eIF4H FP inh retest=-5.0;PABP FP inh retest=8.7
CCOC(=O)c1c(C)[nH]c(C(=O)COC(=O)c2oc3ccccc3c2C)c1C | 7.7 | 11.3 | 4.4 | i | -7.6 | 0.7 | 11.1 | -148.0
CCc1cc2c3c(c(=O)oc2cc1OC)CCCC3 | 0.6 | 2.5 | 1.7 | i | 5.5 | -13.0 | 11.9 | -139.7
Cc1ccc(F)cc1NC(=O)CSc1nc(Nc2ccccc2)nc(N2CCOCC2)n1 | -6.9 | -4.8 | -8.4 | i | -10.4 | -6.1 | -6.4 | 19.5
Cc1ccc(C2=CC(c3ccc(C)cc3)n3ncnc3N2)cc1 (configuration not stated) | nt | -18.8 | -0.1 | i | -9.3 | 6.9 | nt | -27.4
C/C(=N\NC(=O)c1ccc(O)cc1)c1ccc(N2CCOCC2)cc1 | -2.8 | 5.7 | 6.0 | i | nt | -6.0 | 3.4 | -3.2
NC(=O)C1CCN(C(=O)CN2CCN(c3cccc(C(F)(F)F)c3)CC2)CC1 | 0.0 | 1.3 | -1.8 | i | -1.8 | -3.1 | -5.0 | 1.8
Cc1ccc(Sc2ncccc2/C=N/O)cc1 | -6.2 | -9.3 | -4.6 | i | -4.9 | -5.4 | -10.9 | 21.6
CCOCCCNC(=O)C1CCN(C(=O)N(C)C)CC1 | 13.1 | -4.9 | -0.8 | i | 22.4 | -11.1 | -2.7 | nt
